NPYLR7 agonist – mosquito NPYLR7 agonism | HEK293T NPYLR7/Galpha15, GCaMP6s calcium fluorescence | activation, % at 10 µM | 270,000 compounds, 0.15% hits | AID 1259423; in the data active = activation above about 40%;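 also: 0% = vehicle and 100% = reference agonist at the receptor; some compounds past the cut are filed as inactive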
NPYLR7 agonist max-min – further read-out of NPYLR7 agonist, marked with its call; activation, %; measured here: Max-Min RFU normalised activation; some inactives read as strong as hits;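 span of the calcium signal over five minutes; 0% = vehicle and 100% = native peptide agonist; compound fluorescence can raise it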
Starred values were filed as active, the others as inactive; & = joins results of further samples.

compound | NPYLR7 agonist | NPYLR7 agonist max-min
CC(C(=O)N1CCCc2ccccc21)N1CCN(S(=O)(=O)N2CCCCCC2)CC1 (configuration not stated) | 14.3 | 10.9
CCOP(=O)(Cc1ccc(NC(=O)c2cccc(SC(F)F)c2)cc1)OCC | -4.0 | -10.2
CC(=O)Nc1nc(C)c(S(=O)(=O)N2CCN(c3c(Cc4ccccc4)c(C)nc4ncnn34)CC2)s1 | 19.0 | 7.3
CCOc1ccc(C(=O)NCCn2cc(SCC(=O)NCc3ccccc3)c3ccccc32)cc1 | 2.6 | 1.3
CCCc1cnc(-c2ccc(C(C)N3CCOCC3)cc2)nc1 (configuration not stated) | 3.7 | 3.7
CC(CCc1ccco1)NC(=O)c1cccc(S(=O)(=O)N2CCOCC2)c1 (configuration not stated) | -0.9 | -0.6
c1cn(-c2ccc(C3NCCc4[nH]cnc43)cc2)cn1 (configuration not stated) | 2.5 | 1.1
CCCCC(NC(=O)CCc1cc2c(n1-c1ccc3ncsc3c1)-c1ccc(OC)cc1CC2)C(=O)OC (configuration not stated) | 22.8 | 16.8
COc1cc(Nc2cc(C(=O)O)nc3ccc(C)cc23)cc(OC)c1OC | -1.8 | -2.3
CCn1c(O)c(N=NC(=O)c2ccccc2O)c2ccccc21 | -17.8 | -16.5
CCCN(Cc1cnn(CC)c1)CC(C)C | 3.1 | -2.1
CSc1ccccc1OCc1cc(C(=O)NCCc2cccc(C(F)(F)F)c2)no1 | 12.4 | 2.8
CC(C)[C@@H]1C[C@@H]2C[C@@H](NC(=O)Nc3ccccc3)C[C@]2(c2ccccc2)CO1 | 32.1 | 30.4
Cc1ncc(C(=O)N2CCCC(CCc3ccccc3C(F)(F)F)C2)c(=O)[nH]1 (configuration not stated) | -2.7 | -2.3
CN(C)c1ncc2c(n1)CCCC2NC(=O)c1ccsc1 (configuration not stated) | 0.8 | -2.3
CCN1CCN(C(c2ccncc2)c2c(O)cc(C)n(Cc3ccco3)c2=O)CC1 (configuration not stated) | 7.8 | 2.5
Cn1cc(C(=O)N2CCCCCC2)cc(NC(=O)C2CC(=O)N(c3ccccc3)C2)c1=O (configuration not stated) | -13.3 | -20.1
Cn1c(O)c(C=Nc2cnccn2)c(=O)n(C)c1=O | 1.2 | -1.5
O=C(COC(=O)C1CN(C(=O)c2ccc(F)cc2)CCS1)Nc1ccc(F)cc1 (configuration not stated) | 8.0 | 5.2
Cc1cc(NC(=O)c2cc(C(C)C)no2)ccc1NC(=O)C(C)(C)C | 1.2 | 0.3

Single records, from the list above.
Cc1cc(NC(=O)c2cc(C(C)C)no2)ccc1NC(=O)C(C)(C)C across the screens: NPYLR7 agonist: 1.2; NPYLR7 agonist max-min: 0.3
Cn1c(O)c(C=Nc2cnccn2)c(=O)n(C)c1=O across the screens: NPYLR7 agonist: 1.2; NPYLR7 agonist max-min: -1.5
CSc1ccccc1OCc1cc(C(=O)NCCc2cccc(C(F)(F)F)c2)no1 across the screens: NPYLR7 agonist: 12.4; NPYLR7 agonist max-min: 2.8

Individual results from the entries so far.
For NPYLR7 agonist max-min, CCN1CCN(C(c2ccncc2)c2c(O)cc(C)n(Cc3ccco3)c2=O)CC1 (configuration not stated) reads 2.5
For NPYLR7 agonist, CCOc1ccc(C(=O)NCCn2cc(SCC(=O)NCc3ccccc3)c3ccccc32)cc1 reads 2.6
For NPYLR7 agonist max-min, CCCc1cnc(-c2ccc(C(C)N3CCOCC3)cc2)nc1 (configuration not stated) reads 3.7
For NPYLR7 agonist, c1cn(-c2ccc(C3NCCc4[nH]cnc43)cc2)cn1 (configuration not stated) reads 2.5
For NPYLR7 agonist max-min, CCCN(Cc1cnn(CC)c1)CC(C)C reads -2.1

(continued)
compound | NPYLR7 agonist | NPYLR7 agonist max-min
CN(CC1CC2CCC1C2)C(=O)C1CCN(S(=O)(=O)c2cccs2)CC1 (configuration not stated) | 2.9 | 1.0
CCn1ncc(C(=O)NC(C)CCc2ccco2)c1C (configuration not stated) | 10.4 | 6.1
CCc1ncc2c(n1)CN(CCCNS(C)(=O)=O)CC2 | 6.9 | 7.6
O=C(c1cnns1)N1CCN(c2ccc(O)cc2)CC1 | 1.5 | -0.2
Cc1cccc(N2N=C(C(=O)Nc3ccc4c(c3)OCO4)CCC2=O)c1 | -0.6 | -3.1
Fc1ccccc1-c1nc(-c2ccc(Br)o2)no1 | 1.4 | -2.1
CCN1CCN(S(=O)(=O)c2ccc(OC)c(N3CCN(C(=O)c4ccco4)CC3)c2)CC1 | 6.6 | 20.1
Cc1ccc(NC(=O)Cn2c3ccccc3c(=O)c3ccccc32)cc1C | -2.3 | -11.0
COc1ccc(S(=O)(=O)N2CCC(Cc3ccccc3)CC2)cc1N1CCN(C(=O)c2cc(OC)c(OC)c(OC)c2)CC1 | 18.4 | 4.6
COc1ccc2[nH]c3c(=O)n(CCCCC(=O)N4CCC(C(N)=O)CC4)c(=S)[nH]c3c2c1 | -8.2 | -14.5
O=C(CCn1cnnn1)N1CCCC(Nc2ccc(F)c(F)c2)C1 (configuration not stated) | 2.5 | -0.8
O=c1[nH]c(CNc2ccc3c(c2)OCO3)nc2ccsc12 | 7.7&-2.3 | 3.1&1.6
CSCC1CCN(c2ccc(-c3nc(C)c(C)c(=O)[nH]3)cn2)C1 (configuration not stated) | -19.8 | -19.0
Cc1cccc(NS(=O)(=O)c2cc(C(=O)O)ccc2C)c1 | -2.7 | -3.4
CSc1nnc2n(-c3ccccc3)c(=O)c3c4c(sc3n12)CCCCC4 | 15.4 | 6.2
Fc1cccc(-c2nnn(CCc3ccccn3)n2)c1 | 11.7 | 9.6
O=C(Cn1ccc2ccn(Cc3ccccc3F)c2c1=O)NC1CC1 | -1.5 | -3.5
COc1ccc(CNC(=O)Cn2ccc(CNC(=O)OC(C)(C)C)n2)cc1 | -3.5 | 217.7
O=C(O)C1CC(=O)N(c2ccc(S(=O)(=O)Nc3ccn(Cc4ccccn4)n3)cc2)C1 (configuration not stated) | 2.5 | 7.8
O=C(O)C1(N2CCCCC2)Cc2ccccc2C1 | 6.9 | 4.6
Cc1ccc(C=C(C#N)C(=O)NC(C)C)s1 | 9.0 | 13.6
O=c1oc2ccc(O)cc2s1 | 5.7 | 4.5
O=C(NCC1CCCN(Cc2ccccn2)C1)C1(c2ccc(Cl)cc2)CC1 (configuration not stated) | 20.2&-0.1 | 11.1&0.6
COc1ccc(-c2nc3c(C)cccc3[nH]2)cc1 | 1.2 | 1.2
O=C(O)c1cccc(CC2CCN(Cc3ccc4ccccc4n3)C2)c1 (configuration not stated) | 6.0 | -4.4
COc1ccc(NC(=O)C2(C#N)CCCC2)c(OC)c1 | 6.7 | 1.2
CC1O[C@@H](Oc2c(-c3ccc(O)c(O)c3)oc3cc(O)cc(O)c3c2=O)[C@H](O)[C@H](O)[C@H]1O (some centres not stated) | -6.8 | -10.4
CN1CCOc2cc(C(=O)N3CCC4(CC3)C(=O)Nc3ccccc34)ccc21 | 6.5 | 3.0
Cc1[nH][nH]c(=O)c1CC(=O)NCc1ccc2sccc2c1 | 14.7 | 10.5
CN1C(=O)N(C)C2=NNC=NC2(O)C1=O (configuration not stated) | 1.5 | -0.7
O=C1NC(=S)SC1=Cc1c(F)cccc1F | -10.0 | -18.3
CC(=O)Nc1ccc(-c2ccc(C(C)N3CCCCC3)cc2)cn1 (configuration not stated) | -4.3 | -4.6
COCCCN(CC(=O)N(CCc1c[nH]c2ccccc12)Cc1ccc(C(F)(F)F)cc1)C(=O)C12CC3CC(CC(C3)C1)C2 | 13.8 | 21.9
Cc1cc(C)c(C)c(Oc2c(C#N)c(C)nn2C)c1 | -4.2 | -3.8
O=C(Nc1cnc2n1CCCC2)C1CC12CCC2 (configuration not stated) | 11.3 | 8.5
COc1cc(C(=O)Nc2nc3ncccc3[nH]2)ccc1OC(F)F | -1.5 | -4.9
Cc1cccc(Cc2nc3c(c(N4CCOCC4)n2)CN(C(=O)Nc2ccc(Cl)c(Cl)c2)CC3)c1 | -3.0 | 11.5
Cc1nccn1-c1ccc(-c2ccc(C(C)N3CCOCC3)cc2)nn1 (configuration not stated) | -0.3 | -3.5
COc1cc(OC)cc(-c2nnc(NC(=O)c3ccc(F)cc3)o2)c1 | -4.1 | -7.4
COC(=O)c1c(CC(C)C)csc1N | 8.2 | 7.3

Next part (3 carried over from the part before).
compound | NPYLR7 agonist | NPYLR7 agonist max-min
Cc1nccn1-c1ccc(-c2ccc(C(C)N3CCOCC3)cc2)nn1 (configuration not stated) | -0.3 | -3.5
COc1cc(OC)cc(-c2nnc(NC(=O)c3ccc(F)cc3)o2)c1 | -4.1 | -7.4
COC(=O)c1c(CC(C)C)csc1N | 8.2 | 7.3
O=C(CCCc1ccc(Cl)cc1)N1CCC2(CCOCC2)CC1 | 1.2 | 0.7
COc1ccccc1N1CCN(S(=O)(=O)c2ccc(Cl)cc2)C(C)C1=O (configuration not stated) | 19.3 | 18.5
CCCc1nn(-c2ccccc2C)c(OC(C)=O)c1-c1ccc(NC(=O)c2ccc(OC)cc2)cc1 | 18.7 | 17.3
CN(C)Cc1nnnn1-c1cccc(-n2nnnc2CN(C)C)c1 | 5.0 | 1.5
CCCNC(=O)CSc1nc2ccccc2o1 | 4.7 | -1.8
CCCCCCc1ccc(C(=O)N2CCCC2C(=O)Nc2nnc(-c3ccc(F)cc3)s2)cc1 (configuration not stated) | -2.5 | -8.7
N#CC(=C(O)CSc1n[nH]c2nc3ccccc3n12)c1nc2ccccc2[nH]1 | 5.0 | 12.6
CC1CN(C(=O)NCCc2ccc(N(C)C)cc2)CC(C)O1 (configuration not stated) | 5.9 | 2.7
N#Cc1ccccc1NC(=O)N1CCC(COCc2ccccc2)C1 (configuration not stated) | -22.3 | -24.0
CCCNc1cc(=O)n(-c2ccc(C)cc2)nc1C(=O)OCC | 0.2 | -3.3
N#CCc1cc(-c2ccccc2F)on1 | -1.1 | -1.7
Cc1ccccc1CSc1nc(=O)n(Cc2ccco2)c2c1CCC2 | -0.1 | -1.1
CCC(C)Nc1cc(C(C)C)nc2c(-c3ccccc3)c(C)nn12 (configuration not stated) | -4.6 | 6.6
O=S(=O)(Cc1ccc(Cl)cc1)c1ccc(N2CCN(c3ccccn3)CC2)nn1 | 2.4 | 0.7
CCN1C(=O)C(=Cc2cccc(O)c2)SC1=S | -2.2 | -9.0
Cc1cc(C)c(C(=O)N2CCc3c(cnc(C)c3CNC(=O)/C=C/c3ccccc3)C2)[nH]1 | 3.0 | 2.2
COCCNC(=O)c1ccc(CSc2nnc(-c3cccs3)n2-c2ccc(F)cc2)cc1 | -5.6 | 1.7
COCC(O)CN(C)Cc1cc(F)cc(Br)c1 (configuration not stated) | 5.2 | 4.0
CC1Cc2nc(SCC(=O)NCCc3ccccc3)n(Cc3ccccc3)c(=O)c2S1 (configuration not stated) | -0.9 | -5.5
COc1ccccc1-n1c(-c2ccccc2)c[n+]2c1CCc1ccccc1-2 | 4.0 | 52.0
CCc1nc(C2CC(=O)Nc3c2cnn3-c2ccccc2)c(C)[nH]1 (configuration not stated) | -0.4 | -3.7
C=CCN1C(=O)NC(NC(=O)c2ccc(C)cc2)(C(F)(F)F)C1=O (configuration not stated) | 31.8 | 18.9
C=CCSc1nc2c(c(=O)[nH]1)C(c1cccc(F)c1)C(C(=O)OCC)=C(C)N2 (configuration not stated) | -5.3 | -7.1
Cc1nn(Cc2ccccc2)c(=O)c2c1cnn2C(C)(C)C | 9.5 | 9.0
COc1ccc(OC)c(NC(=O)NC(C)(C)Cc2c[nH]c3ccccc23)c1 | 4.3 | 4.7
O=C(NCc1cccc(CO)c1)c1ccccc1-c1cncnc1 | -5.2 | -5.9
CNC(=O)C(CC(C)C)NC(=O)c1csc(-c2ccccc2)n1 (configuration not stated) | 4.3 | 3.0
Cc1noc(CN(C)C(=O)CCn2nc(C)c(C)c2C)n1 | -0.7 | -5.9
Cc1ccc(-c2ccc(CCC(=O)NCc3ncccc3C)n2-c2ccc(CC#N)cc2)c(C)c1 | 23.0 | 11.0
Cc1ccc(N2CCN(c3cc(Oc4ccc(F)c(F)c4)ncn3)CC2)cc1 | 4.0 | 9.4
CCCCN1CCN(c2cc(C)nc(-c3cccnc3)n2)CC1=O | 5.5 | 3.8
CCc1nc2c(OCCOc3ccccc3)cccn2c1N(C)C(=O)c1ccc(C)cc1 | -1.4 | -2.7
COc1ccc(S(=O)(=O)Oc2cccc(CNCc3ccc(F)cc3)c2)cc1 | -4.4 | -8.2
Cc1ccccc1CC1(C)C(=O)Nc2ccc(Cl)cc21 (configuration not stated) | 9.7 | 9.2
O=C1Nc2c(c3ccccc3oc2=O)Nc2ccccc21 | 2.8 | -0.5
c1ccc2oc(CN3CCCn4cncc4C3)cc2c1 | 0.9 | -0.3

Bioassay records as filed in PubChem.

Not all compounds are listed; count on the stated rates, not on these rows.
